# From PubChem BioAssay
# WNV NS2B-NS3 inh: inhibitors of WNV NS2B-NS3 protease, primary screen, biochemical, fluorogenic substrate; Genome polyprotein (West Nile virus), P06935; fluorogenic substrate Ex360/Em465; hits give low values; z-score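 (tested at a level between 10 and 100 µM)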; hit rate 0.18% among 65,000; AID 577, 2007;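 active = z-score at -3 or under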;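 also: score is relative to mean and spread of the compound wells of a plate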
# Target sequence (P06935 1371-1501 limits assumed): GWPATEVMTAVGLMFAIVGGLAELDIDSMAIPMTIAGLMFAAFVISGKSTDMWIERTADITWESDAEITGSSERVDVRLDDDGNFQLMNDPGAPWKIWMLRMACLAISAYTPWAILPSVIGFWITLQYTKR
# Target sequence (P06935 1502-1679 limits assumed): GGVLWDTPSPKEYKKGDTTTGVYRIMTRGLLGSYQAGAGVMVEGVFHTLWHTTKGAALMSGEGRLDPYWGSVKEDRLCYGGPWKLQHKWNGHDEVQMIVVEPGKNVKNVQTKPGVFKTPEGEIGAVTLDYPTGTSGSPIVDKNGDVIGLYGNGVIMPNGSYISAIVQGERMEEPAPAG
# MT1-MMP reporter: inhibitors of MT1-MMP promoter transcription, cell-based, luciferase reporter, luminescence (AID 618). MT1-MMP promoter luciferase reporter cells, luminescence. calls from a first round at 10 µM; hits with a dose series show EC50 in µM. hit rate 0.62% among 87,000;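 active = over half of the reporter light lost at 10 µM or EC50 under 50 µM; inactive = the rest and hits that failed the dose series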;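 also: actives suppress MT1-MMP promoter-driven transcription so potencies describe inhibitors; HT1080 fibrosarcoma cells; overnight exposure; toxic or luciferase-blocking compounds were not removed from the actives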
# Hsc70 ATP site: Hsc70 inhibitors, probe displacement, primary screen, biochemical, fluorescence polarization (AID 568). Heat shock cognate 71 kDa protein (Homo sapiens). Hsc70 fluorescence polarization, probe displacement; higher % means a stronger effect; strong numbers were not always called active. displacement, % at 20 µM, or IC50 in µM where a hit was titrated. 83,000 tested, under 10 active;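 active = displacement above 50% without optical interference and an IC50 on retest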;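 also: ATPase domain with a fluorescein-tagged ATP probe; 0% = vehicle and 100% = excess ADP; read after one hour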
# * marks the source's active call; other numbers are inactive results; i = inactive; . = no result given. The list is partial; count on the stated rates, not on these rows.
SMILES,WNV NS2B-NS3 inh,MT1-MMP reporter,Hsc70 ATP site
COc1ccc(C2C(C(=O)N3CCCC3)c3cc(OC)c(OC)cc3C(=O)N2C)cc1OC (stereo unspecified),-0.62,i,4.2%
COC(=O)c1ccccc1NC(=O)CN(c1ccccc1)S(=O)(=O)N(C)C,1.9,i,-5.0%
N#CC1=C(N)Oc2ccccc2C12C(=O)Nc1n[nH]c(-c3ccccc3)c12 (stereo unspecified),0.61,i,-5.5%
CCn1c(=O)[nH]c2cc(C(=O)N3CCN(c4ccccc4)CC3)ccc2c1=O,0.04,i,-2.2%
Cc1c(CNC(=O)c2cnn3c2NC(c2ccc(Br)cc2)CC3C(F)(F)F)cnn1C (stereo unspecified),0.56,i,-6.1%
COc1ccc(C(=O)Nc2oc(-c3ccccc3)c(-c3ccccc3)c2C#N)cc1OC,-0.9,i,-8.5%
CN(C)c1ccc(S(=O)(=O)c2ccc(Cl)cc2)cc1,-0.56,i,-4.6%
CCN=C1Cn2c(nc3scc(-c4ccccc4)c3c2=O)CN1CC,0.55,i,-4.2%
O=C(N/N=C/C(Cl)=C\c1ccccc1)c1cnccn1,.,i,-0.3%
CC(=O)Nc1ccccc1C(=O)N1CC(C)OC(C)C1 (stereo unspecified),0.67,i,1.0%
CCC(=O)N1CCc2cc(S(=O)(=O)CCC(=O)Nc3c(C)n(C)n(-c4ccccc4)c3=O)ccc21,-0.59,i,-2.6%
Cc1cc(C)nc(N(C#N)S(=O)(=O)c2ccccc2Cl)n1,-1.1,i,5.6%
CCCOc1cccc(C2/C(=C(/O)c3ccncc3)C(=O)C(=O)N2CCCN(C)C)c1 (stereo unspecified),-0.55,i,0.2%
Cc1ccc(S(=O)(=O)N2CCOCC2)cc1C(=O)OCC(=O)N1CCc2ccccc2C1,-0.02,i,1.9%
CCCOc1ccc(-c2nc(C#N)c(N3CCN(CC)CC3)o2)cc1,0.51,i,7.2%
CC(C)Oc1ccc(/C(O)=C2/C(=O)C(=O)N(Cc3cccnc3)C2c2ccco2)cc1 (stereo unspecified),.,i,0.8%
C/C=C/Cn1c(N2CCCCCC2)nc2c1c(=O)[nH]c(=O)n2C,0.15,i,-5.6%
O=C1CC(N2CCN(S(=O)(=O)c3ccc(Cl)cc3)CC2)C(=O)N1CCc1ccccc1 (stereo unspecified),-0.98,i,6.2%
CC(=N)C1=C(O)CC(C)(C)CC1=O,-0.5,i,-2.2%
COc1ccc(NC(=O)Nc2nccs2)cc1,-1.4,i,5.4%
CC(=O)NC(Cc1c[nH]c2ccccc12)C(=O)Nc1ccc2c(c1)OCO2 (stereo unspecified),1.8,i,2.7%
CC(=O)NC1(C2CCCCC2=O)CCCCC1 (stereo unspecified),0.96,i,-5.9%
COc1cc(C2C(C(=O)c3ccco3)=C(O)C(=O)N2Cc2cccnc2)cc(OC)c1OC (stereo unspecified),-0.62,i,-0.8%
Cc1ccc2c(c1)C(c1ccc(F)cc1)N(C(=O)C1CC1)CC(=O)N2 (stereo unspecified),-1.1,i,6.9%
Cc1cc2cc(CN(Cc3cccs3)C(c3nnnn3C(C)(C)C)C(C)C)c3nnnn3c2cc1C (stereo unspecified),.,i,-10%

# 3 compounds already listed, ordered by count of non-hydrogen atoms, low to high:
SMILES,WNV NS2B-NS3 inh,MT1-MMP reporter,Hsc70 ATP site
CC(=N)C1=C(O)CC(C)(C)CC1=O,-0.5,i,-2.2%
CC(=O)NC(Cc1c[nH]c2ccccc12)C(=O)Nc1ccc2c(c1)OCO2 (stereo unspecified),1.8,i,2.7%
CCCOc1cccc(C2/C(=C(/O)c3ccncc3)C(=O)C(=O)N2CCCN(C)C)c1 (stereo unspecified),-0.55,i,0.2%

# Later entries:
SMILES,WNV NS2B-NS3 inh,MT1-MMP reporter,Hsc70 ATP site
NC(=O)C1CCCN(C(=O)NC2CCCCC2)C1 (stereo unspecified),0.59,i,0.1%
CCCn1c(=N)n(CC(=O)C(C)(C)C)c2ccccc21,-0.63,i,0.6%
COc1ccccc1Oc1nc(-c2ccccc2)cc(C)c1S(C)(=O)=O,.,i,0.2%
Clc1ccc(-c2nnc(SCc3cn4ccsc4n3)n2CC2CCCO2)cc1 (stereo unspecified),-1.1,i,0.2%
C/C(Cl)=C/Cn1c(NCCN(C)C)nc2c1c(=O)n(C)c(=O)n2C,0.83,i,0.2%
CC(=O)NC(CC(=O)Nc1ccc(S(=O)(=O)N2CCCC2)cc1)c1ccccc1 (stereo unspecified),1.1,i,-3.3%
CCCC[n+]1ccn(C2=C([O-])c3ccccc3C(=O)/C2=N\S(=O)(=O)c2ccccc2)c1,.,i,5.5%
Cc1ccc(-c2cc3nc(-c4ccccc4)cc(N4CCC5(CC4)OCCO5)n3n2)cc1,.,i,-22%
COCCNC(=O)CN1CCC(NC(=O)Nc2ccccc2)CC1,0.06,i,0.9%
CC(C)CC(/C(O)=C(\C#N)c1nc2ccccc2[nH]1)N1C(=O)c2ccccc2C1=O (stereo unspecified),-0.13,i,4.7%
O=C(CSc1ncn(-c2ccccc2)n1)N1CCN(c2ccccc2)CC1,-0.19,i,12%
CCCCNC(=O)CC(C(=O)N1CCc2ccccc21)n1ccnc1 (stereo unspecified),.,i,-7.2%
O=C(NC1CCCC1)c1cc(-c2cccs2)on1,-0.18,i,-15%
CC(C)Cc1nc(N2CCOCC2)c(C#N)c2c1CCC2,-1.1,i,9.9%
COc1ccc(C2C3=C(CCCC3=O)Nc3nc(C(F)(F)F)nn32)cc1OC (stereo unspecified),0.46,i,3.7%
NC(=O)CSc1nc2c(sc3ccccc32)c(=O)n1CCCN1CCOCC1,0.39,i,-4.7%
Cc1noc(NS(=O)(=O)c2ccc(NC(=O)c3ccc(Br)o3)cc2)c1C,-0.75,i,-0.9%
Fc1cccc2sc(N3CCCCC3)nc12,0.47,i,0.1%
O=C(c1cc2ccccc2o1)N1CCN=C1SCc1cccc(F)c1,0.53,i,1.3%
CC(=O)c1ccccc1Oc1nc(CN2CCOCC2)nc2scc(-c3cccs3)c12,0.33,i,-1.1%
Cc1sc2nc(CN(Cc3cccs3)C(=O)NC3CCCCC3)[nH]c(=O)c2c1C,-0.34,i,-6.1%
CCOC(=O)CC1C(=O)NCCN1C(=O)COc1ccc(Br)cc1C (stereo unspecified),0.83,i,4.5%
COc1ccc(Nc2cc(C)nc3ccccc23)cc1,0.82,i,8.8%
CCOc1ccc(OCC)c(S(=O)(=O)N2CCC(C)CC2)c1,.,i,3.2%
C=CCn1c(SCC(=O)Nc2nnc(CC)s2)nnc1-c1ccco1,-1,i,0.3%
# Next structures follow.
SMILES,WNV NS2B-NS3 inh,MT1-MMP reporter,Hsc70 ATP site
CCOc1cc(/C=N/O)cc(Cl)c1OC,.,i,-7.9%
COc1ccc2oc(C(=O)c3ccccc3)c(NC(=O)CN3CCN(C)CC3)c2c1,-0.47,i,4.4%
CCOc1ccccc1OCC(=O)Nc1ccc(S(=O)(=O)N(C)C)cc1,0.99,i,-0.4%
CCNc1nc(NCC)nc(N(C)n2cnnc2)n1,-0.79,i,-4.7%
O=c1c(C=NCCCn2ccnc2)c(-c2ccccc2)[nH]n1-c1nc2ccccc2s1,1.4,i,-6.2%
Fc1cccc(Nc2cc(-n3cccn3)ncn2)c1,0.7,i,-5.2%
CC(=O)NC(Cc1ccccc1)C(=O)NC1CCN(C(=O)c2cnccn2)CC1 (stereo unspecified),0.22,i,-2.2%
Clc1ccc(-c2nc(-c3ccccn3)no2)cc1Cl,-0.9,i,2.0%
Cc1cc(C)c(S(=O)(=O)NCC(=O)O)cc1C,.,i,2.5%
O=C(Nc1ccccc1)c1ccccc1O,0.7,i,-3.4%
CC(C)c1ccc(NC(=O)C2CCCN(S(=O)(=O)c3cnc[nH]3)C2)cc1 (stereo unspecified),-0.32,i,0.1%
O=C(c1ccco1)N1CCN(c2ncnc3c2nnn3Cc2ccccc2Cl)CC1,.,i,-0.6%
CC(C)(C)C1(C)OC(C(=O)NC2CCCCC2)C(C(=O)NC2CCCCC2)O1 (stereo unspecified),.,i,-3.2%
CC(O)C1C(=O)OC2(C)CC(C)(C)NC(=S)N12 (stereo unspecified),.,i,0.1%
COCCCNC(=O)CSc1nc2ccc(N3CCOCC3)cc2c(=O)n1CCc1ccccc1,-0.04,i,-3.1%
CCOc1ccc2ccccc2c1C(=O)Nc1cc(=O)n(C)c(=O)n1C,0.14,i,1.3%
CC(C)c1ccc(NC(=O)CCNS(=O)(=O)c2cccc3nsnc23)cc1,.,i,5.4%
Cc1cc(=O)n2ccccc2c1C#N,.,i,-5.3%
O=C(O)Cn1c(C(F)(F)F)nc2ccccc21,0.27,i,-3.3%
CCc1ccc(-c2nn(-c3ccccc3)cc2C2SCC(=O)N2Cc2ccco2)cc1 (stereo unspecified),.,i,1.6%
CCOc1ccc(NC(=O)CSc2nnc(Cn3c(=O)sc4ccccc43)n2C)cc1,-0.11,i,-0.5%
Cc1nc(C)c(C(=O)Nc2cccc(C)c2C)o1,-0.34,i,1.9%
CCN(CC)CCOc1ncnc2c1oc1ccccc12,0.95,i,0.0%
Cc1c(NC(=O)c2ccco2)cccc1-c1nc2cccnc2s1,-0.88,i,-1.5%
Clc1ccc(OCc2nc(-c3ccccn3)no2)c(Br)c1,-0.35,i,0.1%
# Further records follow:
SMILES,WNV NS2B-NS3 inh,MT1-MMP reporter,Hsc70 ATP site
CCC(COC(=O)Nc1cccc(C)c1C)NC(=O)OCC(C)C (stereo unspecified),-0.4,i,-7.1%
O=C1CCCCCN1Cc1nnc(SCc2nc3ccccc3s2)n1-c1ccccn1,-0.19,i,-6.7%
O=C(NCc1ccc(F)cc1)C(c1ccccc1)N(CC1CCCO1)C(=O)Cn1nnc2ccccc21 (stereo unspecified),.,i,1.7%
O=C(Nc1nccs1)NC1CCCCC1,-0.06,i,-1.6%
O=C(O)C(CC(=O)N1CCOCC1)NCc1ccccc1 (stereo unspecified),-0.17,i,-4.7%
O=C(c1ccc(Cn2c(=O)[nH]c3ccccc3c2=O)cc1)N1CCN(c2ccc(F)cc2)CC1,-0.51,i,-1.8%
Cc1ccc(C(=O)C2=C(O)C(=O)N(CCN(C)C)C2c2ccccn2)o1 (stereo unspecified),0.32,i,7.7%
OC(CN1CCOCC1)C12CC3CC(CC(C3)C1)C2 (stereo unspecified),-0.78,i,-0.1%
Cn1c(-c2ccc(F)cc2)cnc1SCC(=O)Nc1ccccc1N1CCOCC1,-0.17,i,-5.5%
Cc1ccc(C)c(OCC(=O)Nc2ccc3c(c2)OCO3)c1C,-1.1,i,7.2%
Cc1nn(-c2ccccc2)c2sc(C(=O)N3CCOCC3)cc12,-0.19,i,3.1%
Cc1ccc(-c2n[nH]c(=S)n2-c2ccccc2)cc1,.,i,3.9%
COc1ccc(OC)c(NC(=O)CSc2nc3c(c(=O)n(C)c(=O)n3C)n2C)c1,-0.58,i,2.4%
COCCn1nnnc1C(C(C)C)N(Cc1ccccc1)Cc1cc2cc(OC)ccc2[nH]c1=O (stereo unspecified),-0.19,i,-6.0%
N#CCCN(C(=O)CSc1nc(-c2ccccc2)cn1N)c1ccc(F)cc1,.,i,2.5%
COC(=O)Nc1nc2c(C)cccc2s1,0.79,i,2.6%
CCN1CCN(C(c2ccc(OC)c(OC)c2)c2nnnn2C(C)(C)C)CC1 (stereo unspecified),2.1,i,-1.6%
CCCCSc1nc(N)c(NC(=O)c2ccco2)c(=O)[nH]1,1.6,i,2.2%
O=C(NCC1CCCO1)c1ccc(CS(=O)(=O)Cc2ccc(F)cc2)o1 (stereo unspecified),1.8,i,-4.4%
Cc1ccc(SCc2nnc(N)s2)cc1,0.01,i,2.7%
CCn1nnnc1NCc1cccn1C,-0.78,i,0.2%
CCc1c(C)sc(NC(=O)c2ccco2)c1C(=O)N1CCOCC1,1.2,i,13%
CC1CCCCC1NC(=O)Cn1c(CN2CCCCC2)nc2ccccc2c1=O (stereo unspecified),0.3,i,-5.4%
CC(C)OC(=O)Cn1nnc2c(cnn2-c2ccccc2)c1=O,.,i,-4.4%
CCOc1cccc(=O)c2c(C)n(Cc3ccco3)c(C)c12,-0.39,i,-5.6%
# Next part.
SMILES,WNV NS2B-NS3 inh,MT1-MMP reporter,Hsc70 ATP site
CCOC(=O)c1c(N2CCCCC2)c2ccccc2[nH]c1=O,.,i,4.4%
CSC1=NCCN1C(=O)c1ccc2c(c1)OCO2,-1.1,i,1.7%
CCCC1C(c2ccco2)NC(c2ccco2)CC1(C)O (stereo unspecified),1.1,i,4.4%
O=C1CCCC2=C1C(c1ccc(Br)cc1)c1c([nH]c(=S)[nH]c1=O)N2 (stereo unspecified),0.86,i,-6.3%
Cc1ccc2nc3ccc(N4CCN(C)CC4)nn3c(=O)c2c1,-1.1,i,0.5%
S=c1nc2ccccc2c2nc(-c3ccccc3)[nH]n12,-0.74,i,1.4%

# Reformatted: entries from further up
> CCOC(=O)c1c(N2CCCCC2)c2ccccc2[nH]c1=O
  WNV NS2B-NS3 inh: .
  MT1-MMP reporter: i
  Hsc70 ATP site: 4.4%
> CSC1=NCCN1C(=O)c1ccc2c(c1)OCO2
  WNV NS2B-NS3 inh: -1.1
  MT1-MMP reporter: i
  Hsc70 ATP site: 1.7%
> CCCC1C(c2ccco2)NC(c2ccco2)CC1(C)O (stereo unspecified)
  WNV NS2B-NS3 inh: 1.1
  MT1-MMP reporter: i
  Hsc70 ATP site: 4.4%
> O=C1CCCC2=C1C(c1ccc(Br)cc1)c1c([nH]c(=S)[nH]c1=O)N2 (stereo unspecified)
  WNV NS2B-NS3 inh: 0.86
  MT1-MMP reporter: i
  Hsc70 ATP site: -6.3%
